ClpP mod = qHTS Assay for Activators of ClpP; purified B. subtilis ClpP, FRET peptide cleavage, 20 min; Potency, µM (highest dose often 57.5 µM), without a hit: top-dose activity change, negative = active; 340,000 tested, 1.9% active; AID 651965, 2013; active = well fitted falling curve with a large enough effect; inconclusive = small, poorly fitted or top-dose-only effect; inactive = no such curve, though single readings can be large or run the other way; also: potency is read from the fitted curve at half-maximal effect; the source files actives as falling curves though it sought activators and does not explain the sign; nearly all actives have a fitted effect of over 65% in size; many hits overshoot -100%
Target sequence (P80244 whole entry, looked up): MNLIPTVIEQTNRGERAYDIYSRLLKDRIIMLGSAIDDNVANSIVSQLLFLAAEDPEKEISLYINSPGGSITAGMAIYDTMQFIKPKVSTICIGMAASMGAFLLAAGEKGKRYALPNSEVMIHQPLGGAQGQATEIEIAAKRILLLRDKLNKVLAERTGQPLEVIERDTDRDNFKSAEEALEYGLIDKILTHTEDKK
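ClpP 10 microg/mL final, pH 8 Tris/KCl buffer with BSA, glycerol, Tween-20; compound pinned in; FRET-FV substrate; RT 20 min; Ex320/Em430; ΔFRET vs ADEP 5.8 microM, DMSO, no enzyme.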
TRPML1 agonist = human mucolipin-1 channel agonism | Q9GZU1 | TRPML1-expressing cells, Ca2+ dye fluorescence, FDSS; host cell line not named in the record; reference of the full effect not given here | activation, % (concentration not given with the values) | 410,000 tested, 0.12% active; in the data active = activation above about 50%; inconclusive = about 30% to 50%; inactive = below about 30%; also: 0% is about no effect; the text of the record puts the active cut at 80%
Target sequence (Q9GZU1 whole entry, looked up): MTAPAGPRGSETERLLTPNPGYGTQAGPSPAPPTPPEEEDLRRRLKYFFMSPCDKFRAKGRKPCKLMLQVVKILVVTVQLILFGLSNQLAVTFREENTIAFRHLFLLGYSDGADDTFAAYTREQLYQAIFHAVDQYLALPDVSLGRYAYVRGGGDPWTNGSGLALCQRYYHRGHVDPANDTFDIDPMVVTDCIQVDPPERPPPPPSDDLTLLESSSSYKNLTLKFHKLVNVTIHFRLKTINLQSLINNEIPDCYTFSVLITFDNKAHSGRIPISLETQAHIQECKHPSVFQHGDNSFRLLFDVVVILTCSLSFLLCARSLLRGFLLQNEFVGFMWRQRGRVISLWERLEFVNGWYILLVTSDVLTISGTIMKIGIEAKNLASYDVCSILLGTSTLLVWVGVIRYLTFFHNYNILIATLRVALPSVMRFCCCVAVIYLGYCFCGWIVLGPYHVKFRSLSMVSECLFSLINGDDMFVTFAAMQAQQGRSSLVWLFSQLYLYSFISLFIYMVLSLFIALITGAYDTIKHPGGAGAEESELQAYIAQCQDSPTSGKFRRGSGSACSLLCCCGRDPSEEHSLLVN
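Cells: TRPML1-DL, 1X Tet inducer, ~16 h at 37 degrees C/5% CO2. Dye: ABD Ca8 no-wash + quencher, 45-90 min RT. Read: 10 s baseline, compound add, 110 s agonist phase; 54-4 EC80 (4uM final), 110 s antagonist phase.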
Sfp PPTase inh = inhibitors of Bacillus subtilis Sfp phosphopantetheinyl transferase; Q9F4F7; Biochemical Sfp PPTase activity, qHTS; Potency, µM, for the others: max response, negative = inhibition, hits mostly inhibitors; 310,000 tested, 3.5% active; AID 1490; active = well fitted inhibition curve with a large enough effect; inconclusive = small, poorly fitted or top-dose-only effect, or another doubt; inactive = no such curve, though single readings can be large or run the other way;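 also: the enzyme is Sfp with the accession as filed and its product quenches rhodamine fluorescence; potency is read from the fitted curve at half-maximal effect; 0% = enzyme reaction without inhibitor and -100% = no enzyme wells; top concentration of the series not given in the record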
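After 15 min at room temperature with compound, 15 nM Sfp received 5 uM rhodamine-CoA plus 12.5 uM BHQ-2-ybbR (50 mM Hepes pH 7.6, 10 mM MgCl2). Rate came from the fluorescence difference over 30 min, ex 525/em 598 nm.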
TRPV1 potentiator = human TRPV1 potentiation; TRPV1-expressing cells, Fluo-8 calcium influx, capsaicin EC20 potentiation; host cell line not named in the record; control for the full effect not named in the record; 320,000 tested, 0.02% active; potentiation, % at 8.33 µM; AID 540277; active means potentiation above 80%; inconclusive means 30% to 80%; inactive means below 30%; also: 0% is about no effect
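TRPV1-expressing cells were cultured overnight at 35.5C and loaded with Fluo-8 calcium dye for 40 to 90 min at room temperature. After a 10 s baseline, compound was added and calcium influx was read kinetically for 3 min (ex 480/em 520 nm).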
Menin-MLL FL inh = displaces fluorescein MLL peptide from human menin; FP activity change, % at 61.4 µM; Fluorescence polarization, fluorescein-MLL peptide displacement from menin; AID 1766; 290,000 tested, under 10 active; inconclusive = falling polarisation curve, or a change in total fluorescence; inactive = total fluorescence flat and polarisation flat or rising; no compound was filed as active; the % refers to the polarisation; negative = inhibition;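 also: % of control where 0% means no effect; inhibitors lower the polarisation; unlabelled MLL peptide was the positive control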
PINK1 modulator = changes PINK1 expression; PINK1 immunofluorescence, high-content cytometry, 24 h; Potency, µM (highest dose often 76.6 µM), inactives show at the top dose activation (PINK1 increase), most hits filed as activators; 410,000 tested, 0.2% active; active = well fitted activation curve with a large enough effect; inconclusive = small, poorly fitted or top-dose-only effect; inactive = flat fitted curve, though single readings scatter; cell line not stated here;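 also: potency is read from the fitted curve at half-maximal effect; % of control where 0% means no effect; nearly all actives have a fitted effect of over 65% in size; a mitochondrial uncoupler was the plate control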
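Decision-based qHTS: stable cells, 24 h exposure to five compound concentrations, CCCP as control. Fixed cells stained for PINK1 plus nuclear, mitochondrial and cell markers, cytometer read.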
TRPML1 blocker = blocks the human TRPML1 channel; TRPML1-inducible cells, Ca2+ dye fluorescence, FDSS; active compounds read low; inhibition of EC80 agonist-evoked calcium signal; Q9GZU1; 390,000 tested, 0.02% active; activity change, negative = inhibition, % (test concentration not listed); in the data active means activity change below about -50%; inconclusive means about -30% to -50%; inactive means above about -30%;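 also: stimulus is agonist 54-4 at its EC80 concentration; % is scaled to controls: 0 for no effect and ±100 for the full control effect; compound concentration not given in the record; the text of the record puts the active cut at -80%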
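Tet-induced TRPML1-DL cells loaded with Ca8 no-wash calcium dye were read kinetically on FDSS. Compound addition was followed by EC80 agonist 54-4 (4 uM final); inhibition was read over 110 s.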
* = called active by the depositor; ? = inconclusive; / = no result given; & = joins results of further samples; [ ] = another dose, or the depositor's remark.

SMILES	ClpP mod	TRPML1 agonist	Sfp PPTase inh	TRPV1 potentiator	Menin-MLL FL inh	PINK1 modulator	TRPML1 blocker
COc1cccc(-c2nc(NC3CCNCC3)c3ccccc3n2)c1	/	/	-22.9%	/	3.2	5.2%	/
Fc1ccccc1Nc1c2c(nc3ccccc13)CCC2	-3.6%	-1.5	/	/	/	?	0.8
c1ccc(-c2nc(Sc3ncnc4c3cnn4-c3ccccc3)n[nH]2)cc1	/	/	19.7%	4.9	-0.3	/	/
O=C1COc2ccc(C(=O)COC(=O)c3ccccc3F)cc2N1	-7.2%	0.6	/	/	/	-0.2%	17.0
CS(=O)(=O)N1CCC2(CC1)CN(Cc1cc(C(F)(F)F)cc(C(F)(F)F)c1)C2	/	/	4.6%	/	-4.8	0.0%	/
Cc1ccc(Nc2c(-c3ccc(C)o3)nc3cnccn23)cc1	-3.3%&-12.7%	0.0&-0.4	10µM*	-15.8	4.6	1.2%&0.5%	0.6
CS(=O)(=O)c1ccc(Cl)c(NC(=O)c2cc(=O)[nH]c3ccc(S(=O)(=O)N4CCOCC4)cc23)c1	-6.6%	-0.4	/	-3.3	/	-0.6%	5.4
COC(=O)C1CCN(C(=O)NC2CC(=O)N(c3ccc4c(c3)OCCO4)C2)CC1 (configuration not stated)	89.6%	0.6	/	1.0	/	-0.3%	4.4
C=CC[C@@H](CC(=O)N[C@H](CO)Cc1ccccc1)C(=O)N[C@H](C)COC(=O)[C@@H](CC=C)Cc1ccc(F)cc1	2.1%	-1.3	/	/	/	2.6%	11.8
CCOc1ccc(NC(=O)CCSc2ccc(C)cc2)cc1	-1.0%	3.3	9.5%	-8.2	-1.0	0.2%	-3.3
COc1ccc(Cc2noc(CN3CCN(Cc4cccc(Cl)c4)CC3)n2)cc1OC	/	0.9	-5.3%	-14.4	5.9	0.8%	-8.9
CN(CC(=O)Nc1ccc(S(N)(=O)=O)cc1)C1CCCCC1	/	0.0	-7.1%	4.6	-2.8	-0.5%	-11.5
CC(C)=CC(=O)OCc1cc([N+](=O)[O-])cc2c1OCOC2	/	0.9	1.7%	5.3	0.5	-0.6%	9.2
CC1CCc2sc(C(=O)NN=C3CCCC3)cc2C1 (configuration not stated)	-0.8%	-0.5	/	/	/	1.7%	-2.3
COCCn1c(SCC(=O)NCc2cccs2)nnc1-c1ccc(OC)cc1	-0.3%	0.6	12.2%	5.0	-1.4	-4.8%[38.3 µM]	-3.9
COC(=O)C1=C(CN2CCN(C)CC2)NC(=O)NC1c1cc(C)ccc1C (configuration not stated)	1.7%	0.5	3.4%	-37.3	-0.1	0.8%	-7.1
CN(CC(=O)Nc1ccccc1Cl)C(=O)CSc1nc2ccccc2s1	-2.6%	1.4	13.7%	3.7	3.3	2.2%	9.9
CCn1nc(C)c2c(-c3ccccc3)cc(=O)n(C(C)C(=O)NCc3ccc(C)cc3)c21 (configuration not stated)	4.1%	3.9	/	/	/	14.3%	11.4
CC(C)(C(N)=O)N1CCN(c2ncc(C(F)(F)F)cc2Cl)CC1	0.4%	1.2	16.4%	13.6	-0.6	-1.3%	1.2
CC(=O)N1CCN(C(=O)c2oc3ccccc3c2C)CC1	0.3%	0.0	6.6%	6.2	/	-1.6%	9.1
O=C1COc2ccc(C(=O)CCl)cc2N1	/	0.1	-5.9%	/	3.4	4.1%	6.6
N#Cc1nc(COc2ccccc2Cl)oc1N1CCCC1	/	2.5	5.1%	-4.3	0.5	-1.4%	15.3
CCOC(=O)CN1C(=O)CSc2ccc(S(=O)(=O)N3CCCC3)cc21	/	0.5	13.7%	?	5.1	-2.2%	-20.1
Cc1cc(C)c2c(n1)nn1c(N3CCN(c4ccccc4)CC3)cc(C)nc21	-15.3%	1.9	14.1%	-17.0	-6.8	27.6%[38.3 µM]	103.3
O=C(Nc1ccc(Cl)cc1Cl)NC1CCCC1	/	0.6	20.1%	-14.2	3.9	-0.2%	-5.2

(further entries)
SMILES	ClpP mod	TRPML1 agonist	Sfp PPTase inh	TRPV1 potentiator	Menin-MLL FL inh	PINK1 modulator	TRPML1 blocker
CC(=O)c1ccc(OC(=O)c2cccs2)cc1	-6.6%	-0.2	3.6%	-1.1	2.3	-3.6%[38.3 µM]	-6.7
CCOC(=O)c1sc(N2C(=O)c3oc4cc(C)c(C)cc4c(=O)c3C2c2cccc(O)c2)nc1C (configuration not stated)	-14.4%	0.8	/	/	/	-0.8%	17.8
O=C(CN1C(=O)NC2(CCCC2)C1=O)Nc1cc(Cl)ccc1N1CCOCC1	-0.4%	-0.1	/	-10.9	/	0.1%	-9.5
Cc1cc2c(cc1S(=O)(=O)Nc1cccc(F)c1C)NC(=O)CO2	/	0.7	19.3%	9.7	1.8	1.1%	17.6
COCCn1c(SCC(=O)N2CCCC2)nc2c(c1=O)SCC2	-1.8%	-0.7	/	/	/	0.2%	-6.5
CC1(C)CC(=O)c2sc(NS(=O)(=O)c3ccc(Br)cc3)nc2C1	-4.1%	-0.2	-2.8%	1.8	-2.9	2.9%	-3.2
NC(=S)N=Nc1c(O)n(Cc2ccccc2)c2ccccc12	4.3%	1.4	9.7%	-0.9	6.5	?	14.9
CC(=O)Nc1ccc(SCC(=O)NC(=O)c2ccccc2Br)cc1	-3.7%	1.8	/	?	/	-1.4%	-15.3
COc1ccc(C(C#N)CCC2OCCO2)cc1OC (configuration not stated)	1.4%	-0.5	/	-3.8	/	0.2%	2.6
N#Cc1cc(C#N)c(SCC(=O)N2CC(=O)Nc3ccccc32)nc1N	-9.1%	-0.6	/	-1.9	/	18.2%	-11.1
CCCC1=Nc2cc(C(=O)N3CCC(C)CC3)ccc2Sc2ccc(C)cc21	0.1%	3.7	/	/	/	0.2%	1.8
O=C(CCCn1c(=O)c2sccc2n(CC(=O)NCC2CCCO2)c1=O)NCc1ccco1 (configuration not stated)	/	0.2	17.4%	22.4	0.9	-2.4%	-11.1
C[C@H](CO)N1C[C@H](C)[C@@H](CN(C)S(=O)(=O)c2cccs2)Oc2c(NC(=O)Cc3ccccc3)cccc2C1=O	0.8%	-0.6	/	/	/	1.8%	3.9
O=C(Nc1nc2ccc(F)cc2s1)c1cccc(S(=O)(=O)N2CCc3ccccc32)c1	?	1.0	11.8%	-11.0	2.1	?	2.7
Cn1c(=O)c2c(nc(SCC(=O)Nc3ccc(F)cc3F)n2Cc2ccccc2)n(C)c1=O	-2.0%	3.1	/	/	/	-0.5%	11.5
Cc1ccccc1NC(=O)Nc1ccccn1	1.0%	/	24.7%	-12.0	-5.2	1.1%	/
COc1ccc(N2CCN(C(=O)CSc3ncnc4c3cnn4-c3ccccc3C)CC2)cc1	0.3%	1.3	6.2%	10.4	2.2	9.3%	3.4
Cc1ccc(-c2nnn(CC(=O)N(c3ccccc3F)C(C(=O)NC3CCCC3)c3ccncc3)n2)o1 (configuration not stated)	/	1.3	31.5%[activator]	-1.7	0.0	14.4%	-1.1
CCCCc1cc(=O)oc2cc(C)cc(OCC(=O)NCCN3CCOCC3)c12	4.3%	-1.0	4.1%	26.7	-5.7	0.9%	-2.0
O=C(OCC(=O)N1CCN(C(=O)c2ccco2)CC1)c1ccccc1Cc1ccccc1	-0.4%	1.3	-3.0%	2.9	2.0	/	-4.4
O=C(OCCOc1ccc(Br)cc1)c1ccc(Cl)c(S(=O)(=O)N2CCOCC2)c1	/	1.1	/	-13.2	/	2.1%	24.2
COc1ccc([N+](=O)[O-])cc1NC(=O)CCS(=O)(=O)c1ccc(Br)cc1	/	0.7	11.8%	6.4	0.4	-1.0%	-7.5
CCOc1ccc(OCC(=O)Nc2ccc(N3CCCCC3)cc2)cc1	-1.1%	-0.3	15.7%	1.7	/	10.3%	9.3
COc1ccc(Cl)cc1NC(=S)N(CCCN1CCOCC1)Cc1cn(C)c2ccccc12	-3.6%	0.3	12.6µM*	3.5	0.6	-0.2%	14.2
CCNc1nc2c(c(=O)n(C)c(=O)n2C)n1Cc1ccc(F)cc1	1.6%	-0.6	/	/	/	1.2%	52.3

New compounds follow:
SMILES	ClpP mod	TRPML1 agonist	Sfp PPTase inh	TRPV1 potentiator	Menin-MLL FL inh	PINK1 modulator	TRPML1 blocker
NNC(=O)c1cc2ccccc2cc1O	-4.6%	1.1	16.9%	7.7	?	1.7%	5.8
CCOC(=O)CC(NC(=O)Cn1nnc(-c2ccccc2Cl)n1)c1ccc(OC)cc1 (configuration not stated)	-3.6%	5.3&11.3	19.6%	-2.5	2.6	2.1%&-1.6%	-7.0&-12.0
COc1ccc(C2C(C(=O)c3ccco3)=C(O)C(=O)N2CCN2CCOCC2)cc1 (configuration not stated)	/	-0.2	1.8%	-3.5	7.1	-0.9%	20.3
O=C1OC2(CCCC2)OC(=O)C1=Cc1c[nH]c2ccccc12	/	0.1	9.3%	-0.8	2.6	1.2%	8.4
O=C(NCc1ccccc1Cl)c1ccc2nc(Cc3ccccc3)oc2c1	-3.9%	2.9	/	/	/	-0.6%	17.1
COc1cccc(NC(=O)c2cc(S(=O)(=O)N3CCc4ccccc43)cn2C)c1	-5.6%	1.8	9.9%	-4.6	-1.8	7.8%	-5.9
COc1ccc2c(c1)CCCO[C@]21O[C@H](CCO)C[C@H](O)[C@H]1O	1.2%	0.2	/	/	/	1.2%	-8.6
Cc1ccccc1SCC(=O)OCC(=O)Nc1ccc(N(C)C)cc1	0.2%	3.4	11.1%	-14.8	-0.2	-0.3%	18.1
NS(=O)(=O)c1ccc(NC(=O)CN2CCCCC2)cc1	0.8%	0.2	6.6%	-3.7	0.3	10.5%[38.3 µM]	11.8
N=c1c2c(-c3ccccc3)c(-c3ccccc3)n(Cc3ccccc3)c2ncn1CCCn1ccnc1	1.4%	1.6	?	6.6	-1.9	-0.7%	4.9
Cc1nc(NC(=O)/C=C/c2ccc(Cl)cc2Cl)sc1C(=O)N(C)C	-13.6%	0.3	6.5%	-9.9	6.1	10.3%	-3.0
Cc1ccc(-n2nnnc2Sc2nc([N+](=O)[O-])nn2C)cc1C	0.1%	-0.6	27.5%	7.2	0.0	-1.2%	-6.8
COC(=O)[C@H](C)NC(=O)Nc1cc(OC)ccc1OC	-4.0%	-0.1	4.7%	4.7	1.5	?	-4.9
COCCn1c(Cc2ccccc2)nnc1SCC(=O)Nc1ccccc1	/	0.6	20.4%	-5.2	-5.6	0.9%	-0.4
O=C(CCSCc1cnn(-c2ccccc2)c1-n1cccc1)NCc1ccccc1Cl	1.9%	1.9	/	/	/	1.7%	-15.2

Screening data deposited in PubChem by National Center for Advancing Translational Sciences (NCATS).
